VACV mCherry inh: vaccinia inhibition (mCherry reporter) | Potency, µM (series often up to 36.5 µM), for the others: at the top dose activity change, negative = inhibition, actives largely listed as inhibitors | Vaccinia virus mCherry reporter infection, fluorescence; about a quarter of the inactives have no number | 310,000 compounds, 0.63% hits; active = well fitted inhibition curve with a large enough effect; inconclusive = small, poorly fitted or top-dose-only effect; inactive = no such curve, though single readings can be large or run the other way; tested in A549 cells; also: nearly all actives have a fitted effect of over 35% in size; inactives centre near -10
Vaccinia Venus: vaccinia inhibition (Venus reporter). AID 720580. Potency, µM (series often up to 36.5 µM), inactives show at the top dose activity change, negative = inhibition, usual class: inhibitors. Vaccinia virus Venus reporter expression, fluorescence. 330,000 compounds, 0.46% hits; active means well fitted inhibition curve with a large enough effect; inconclusive means small, poorly fitted or top-dose-only effect; inactive means no such curve, though single readings can be large or run the other way; tested in A549 cells; also: nearly all actives have a fitted effect of over 30% in size; inactives centre near -10
Active calls of the source: *; i = inactive; ? = inconclusive; nt = not tested or not shown; & = joins results of further samples; [ ] = remark or other dose. % is scaled to controls: 0 for no effect and ±100 for the full control effect; potency is read from the fitted curve at half-maximal effect.

mol	VACV mCherry inh	Vaccinia Venus
Cc1cccc(C)c1-n1nnnc1C(c1ccnc2ccccc12)N1CCCN(C(=O)OC(C)(C)C)CC1 (stereo not drawn)	8.1%	-3.0%
COc1ccc2c(c1)OCC(Cc1ccc(O)c(OC)c1)C2=O (stereo not drawn)	-7.8%	-22.3%
COc1ccc(NC(=O)N(C(C)C)C2CCN(C(C)=O)CC2)c(OC)c1	-9.7%	-6.6%
CC(=O)N1CCC(CCCC2CCN(C(C)=O)CC2)CC1	-26.8%	-2.1%
COc1cc(NC(=O)CCc2nc3cccnc3n2Cc2cccs2)cc(OC)c1OC	-17.9%	-17.7%
CC1=CC(C)C2(CO)COC(c3ccc(O)cc3)C1C2C (stereo not drawn)	?	-20.9%
O=C(COc1ccc(F)cc1Br)Nc1ccccc1N1CCOCC1	-15.7%	-21.2%
c1ccc(-c2ccccc2-c2nc(-c3ccncc3)no2)cc1	i	0.1%
COc1ccc(CNC(C)CCc2ccccc2)cc1 (stereo not drawn)	-14.2%	-22.5%
CC1CCN(S(=O)(=O)c2ccc3[nH]c(=O)ccc3c2)CC1	-13.2%	-4.6%
CNC(=O)c1c(I)c(C(=O)NCC(=O)Nc2c(I)c(C(=O)O)c(I)c(C(=O)NCCO)c2I)c(I)c(N(C)C(C)=O)c1I	-10.0%	-6.4%
CC(C)c1nc2sc3c(=O)[nH]cnc3c2c2c1CCC2	-23.2%	-11.7%
CCOC(=O)/C=C1\CN(Cc2cc(OC)c(OC)c(OC)c2)S(=O)(=O)c2ccc(C(F)(F)F)cc21	-25.8%&-10.2%	?
O=C(COC(=O)[C@@H]1CC(O)CN1S(=O)(=O)c1ccc2c(c1)OCCO2)Nc1ccccc1F (stereo partly drawn)	-11.9%	-10.1%
Cc1cc(=O)n2[nH]c(-c3ccccc3Cl)cc2n1	-10.4%	-6.8%
Cc1cc(C)nc(SCC(=O)OCC(=O)Nc2nc3ccccc3s2)n1	-20.5%	-10.8%
COc1ccc(N2CC(NC(=O)N3CCN(c4ccccc4)CC3)CC2=O)cc1 (stereo not drawn)	0.3%	-4.7%
Fc1ccccc1CSc1ncnc2sc3c(c12)CCCC3	-9.1%	-10.7%
COc1cc(OC)cc(-c2nc3nc(C)c(CCC(=O)Nc4cc(C)cc(C)c4)c(C)n3n2)c1	-7.3%	-6.0%
Nc1ccc(Cl)c(NC(=O)c2cccs2)c1	i[1.46 µM]	-7.8%
Cc1cc2nnc(SC3CCCCN(C(=O)c4ccc(F)cc4)C3=O)n2c2ccccc12 (stereo not drawn)	-15.5%	1.6%
CS(=O)(=O)N(CC(=O)NCC1CCCO1)c1cc(Cl)c(Cl)cc1Cl (stereo not drawn)	-18.6%	1.7%
Cc1ccc(NC(=O)CCNS(=O)(=O)c2cccc3nonc23)cc1Cl	-1.0%	-4.5%
Cc1cc(O)ccc1N/C=C(\C#N)c1nc2ccccc2o1	-28.7%	?
CCCNC(=O)c1cc(C2CCCCN2C(=O)c2ccc(C#N)cc2)on1 (stereo not drawn)	20.6%	-6.7%
COc1ccc(CNc2nc(-c3ccccc3)nn2C(=O)c2ccccc2OC)cc1	-5.7%	-6.7%
Cc1[nH]c2ccccc2c1/C=N\NC(=O)c1ccccc1Cl	-10.8%	-9.2%
CCOC1=NN(c2ncc(C(F)(F)F)cc2Cl)C(=O)/C1=C/N(C)C	-10.6%	-2.0%
C=C1C(=O)OC2CC(C)C3C=CC(=O)C3(C)C(O)C12 (stereo not drawn)	?	6.31µM*
Cc1oc2ncn(CC(C)C)c(=O)c2c1C(=O)N1CCN(c2ccccc2F)CC1	-12.4%	-9.6%
CC(C)(C)c1ccc(-n2ncc3c2CCCC3NC(=O)c2ccncc2)cc1 (stereo not drawn)	i	-21.9%
CCOc1ccc(-c2nnc(N)s2)cc1	-2.2%	-18.6%
O=C(Nc1cccc(O)c1)c1ccc(NC(=O)c2cccs2)cc1	-19.2%	-24.0%
Nn1c(SCc2cccc(Br)c2)nnc1-c1cccnc1	i	-7.0%
O=C1C=C(c2ccc(-c3ccccc3)cc2)C[C@@H](c2ccc(F)cc2)C1	i	-18.7%
O=C(CSCc1ccc([N+](=O)[O-])cc1)NC1CC1	-12.0%	-7.0%
O=C(Cn1c(=O)oc2ccccc21)NC(=O)NCc1ccco1	-8.8%	-13.4%
CCOc1ccccc1C(=O)NC1CC2CCCC(C1)N2Cc1nnnn1Cc1ccco1 (stereo not drawn)	i	-5.5%
COC(=O)C(CC(C)C)NC(=O)CSc1nc(-c2ccccc2)c(C#N)c(=O)[nH]1 (stereo not drawn)	-9.2%	-9.0%
CC[C@@H]1C=C(C(=O)O)[C@H](c2ccc(C#N)cc2)N1S(=O)(=O)c1ccc(C)cc1	i	-3.1%

Reformatted field by field: part of the list above.
> COc1ccc(CNc2nc(-c3ccccc3)nn2C(=O)c2ccccc2OC)cc1
  VACV mCherry inh: -5.7%	Vaccinia Venus: -6.7%

> Cc1[nH]c2ccccc2c1/C=N\NC(=O)c1ccccc1Cl
  VACV mCherry inh: -10.8%	Vaccinia Venus: -9.2%

> CCOC1=NN(c2ncc(C(F)(F)F)cc2Cl)C(=O)/C1=C/N(C)C
  VACV mCherry inh: -10.6%	Vaccinia Venus: -2.0%

> C=C1C(=O)OC2CC(C)C3C=CC(=O)C3(C)C(O)C12 (stereo not drawn)
  VACV mCherry inh: ?	Vaccinia Venus: 6.31µM*

(listing goes on)
mol	VACV mCherry inh	Vaccinia Venus
COc1ccc(NC(=O)CN2C(=O)C3CC=CCC3C2=O)cc1Cl (stereo not drawn)	-27.0%	-14.1%
COc1ccc(C(=O)N2CC3(CC(c4cccc(NC(=O)CC(c5ccccc5)c5ccccc5)c4)=NO3)C[C@H]2C(N)=O)cc1 (stereo partly drawn)	i	-26.8%
CC(=O)NC(c1ccc(F)c(F)c1)c1nc(-c2cc3ccccc3o2)cs1 (stereo not drawn)	i	-14.0%
Cc1ccsc1C(=O)OC1CCOC1=O (stereo not drawn)	-9.7%	-6.6%
CC(=O)NC(CC(=O)N(C)Cc1c(F)cccc1Cl)c1ccccc1 (stereo not drawn)	i	-14.3%
COc1ccc(/C=N/Nc2cc(C)nc3ccccc23)cc1	?	?
C[C@H](CO)N1C[C@H](C)[C@@H](CN(C)S(C)(=O)=O)Oc2c(NC(=O)Nc3ccccc3)cccc2C1=O	-1.2%	-19.2%
CCNC(=O)C1CCCN(C(=O)c2ccc3snnc3c2)CC1 (stereo not drawn)	2.6%	3.1%
Cc1ccc(N=C2NC(=O)c3cccc([N+](=O)[O-])c32)cc1	i	-9.8%
CC(=O)C1N=NCC1c1ccccc1 (stereo not drawn)	i	-7.1%
O=S(=O)(c1ccc(N2CCCCCC2)nc1)N1CCCC1	i	-0.8%
Nc1cc(-c2ccccc2)nn1Cc1ccc(Cl)cc1	nt	?
Cn1cc(-c2cccc(Cl)c2)cc(C#N)c1=O	-3.7%	8.2%
CC(=O)Nc1ccc(S(=O)(=O)Nc2ccc(N3CCOCC3)c(F)c2)cc1	nt	-15.8%
CCOc1ccc(NC(=O)Cn2cc(C(=O)c3ccccc3)c(=O)c3cc(OC)ccc32)cc1	-4.6%	1.6%
CCOC(=O)c1c(-n2c(C)cc(/C=C3/C(=O)NC(=O)N(CC)C3=O)c2C)sc2c1CCCC2	-9.8%	0.0%
COc1ccc2c(c1OC)c(=O)n1c3ccc(OC(C)C(=O)NCCN4CCOCC4)cc3c3ccnc2c31 (stereo not drawn)	-1.6%	-2.7%
Cc1ccc(S(=O)(=O)N2CCCC(c3nnc4n3-c3ccccc3SC4)C2)cc1 (stereo not drawn)	nt	-25.5%
CC(N)[C@H](O)c1ccc(O)c(O)c1 (stereo partly drawn)	-9.3%	-4.8%
CCc1cc2c(NC(Cc3c[nH]c4ccccc34)C(=O)O)nc(C)nc2s1 (stereo not drawn)	i	-8.6%
CCc1[nH]nc2c1C(C1C=CCCC1)C(C#N)=C(N)O2 (stereo not drawn)	-28.9%	?
O=C(c1cncc(Br)c1)N1CCN(c2ccc([N+](=O)[O-])cc2)CC1	-17.6%	-25.6%
O=C(Cn1cc(S(=O)(=O)N2CCN(c3ccccc3F)CC2)c2ccccc2c1=O)Nc1ccc(F)cc1Cl	-13.0%	-8.2%
Cc1ccc(NC(=O)CSc2nc3nccnc3c(=O)n2CCc2c[nH]c3ccccc23)c(C)c1	-19.9%	-19.1%
Cc1cccc(CN2C(=O)CN=C(c3ccccc3)c3cc(Cl)ccc32)c1	-13.2%	-12.0%
Cc1cnc(-n2ncc(C(=O)N[C@H]3CCCCNC3=O)c2C2CC2)nc1-c1cccs1	-11.2%	-5.1%
CCOc1ccccc1CNC(=O)C1CCN(C(=O)N2CCOc3ccc(Cl)cc32)CC1	-13.8%	-15.7%
CC(C)C(OC(=O)C1CCCO1)C(=O)NC1CCCC1 (stereo not drawn)	-12.9%	-15.8%
O=C1CC(C(F)(F)F)=NN1	-5.3%	-7.4%
CC1CCN(S(=O)(=O)c2ccc(C(=O)OC(C)C(=O)NC3CCCCC3C)cc2)CC1 (stereo not drawn)	-5.3%	-2.9%
Cc1cccn2c(=O)c3cc(C(=O)NCc4ccco4)c(=N)n(C4CCCC4)c3nc12	i	-5.8%
COC(=O)C1=C(C)N(CCCC(=O)O)C(=O)NC1c1ccccc1Cl (stereo not drawn)	i	-14.3%
Cc1ccc(CNc2oc(COc3ccccc3Cl)nc2C#N)cc1	nt	?
Cc1nnsc1C(=O)NNS(=O)(=O)c1cc(C(F)(F)F)cc(C(F)(F)F)c1	-2.0%	7.6%
O=C(Cn1cc([N+](=O)[O-])ccc1=O)N1CCc2ccccc21	i	-21.4%
Cc1nc(C)c(CCNC(=O)c2ccccc2Br)s1	-13.6%	0.6%
CC(=O)c1ccc(OC(=O)Oc2ccc(C(C)=O)cc2)cc1	-14.4%	-14.4%
CCCCN(C)CCNC(=O)c1cc(-c2ccc(Cl)s2)nc2ccccc12	-27.8%	-21.4%
Cc1cccc2cc(-c3nc(-c4cccs4)no3)c(=O)oc12	i	-6.9%
CC(=O)Nc1ccc(NC(=O)C(=O)c2cn(CC(=O)N3CCCC3)c3ccccc23)cc1	i	-16.3%

Looked up by compound from above, two records:
mol	VACV mCherry inh	Vaccinia Venus
CC(=O)c1ccc(OC(=O)Oc2ccc(C(C)=O)cc2)cc1	-14.4%	-14.4%
Cc1cccn2c(=O)c3cc(C(=O)NCc4ccco4)c(=N)n(C4CCCC4)c3nc12	i	-5.8%

Additional compounds follow.
mol	VACV mCherry inh	Vaccinia Venus
COc1ccc(S(=O)(=O)NC(Cc2cnc[nH]2)C(=O)O)cc1 (stereo not drawn)	-10.4%	0.3%
CCn1c(SCC(=O)Nc2nnc(C)s2)nnc1C(C)NC(=O)c1ccccc1F (stereo not drawn)	-7.3%	-2.2%
CN1CC[C@@]2(C)c3cc(O)ccc3N(C)C12 (stereo partly drawn)	-22.2%	-15.1%
CCCCc1ccc(S(=O)(=O)NC(=O)C2(C)CCN2C(=O)CC2CC2)cc1 (stereo not drawn)	27.2%	-5.1%
COC(=O)[C@]12CCCCC=C1N(CCc1ccc(OC)c(OC)c1)C(=O)[C@H](CC(=O)NCCc1ccccc1OC)C2	-15.7%	-18.7%
CNC(=O)COC(=O)COc1ccc2c(C)cc(=O)oc2c1	i	-4.0%
COc1ccc(N2CCN(c3cnc4ccccc4n3)CC2)cc1	?	-18.5%
CC(C)(C)[C@@H]1C=C(C(=O)O)O[C@H](OCc2ccc(CO)cc2)C1	i	-4.6%
O=C1c2ccccc2NC(c2ccccc2O)N1NS(=O)(=O)c1ccccc1 (stereo not drawn)	-5.2%	-14.7%
COC(=O)c1cc2c(N)c(C(=O)c3ccc(Cl)cc3)sc2nc1C(OC)OC	-29.7%	3.7%
O=C(c1cc2c(=O)oc3ccccc3c2s1)N1CCN(c2ccccc2)CC1	-13.6%	7.5%
CCOC(=O)c1c(NC2=NS(=O)(=O)c3ccccc32)sc2c1CCCCC2	-13.1%	-7.0%
Cc1ccc(C(=O)Nc2nc(C)c(C)s2)o1	-16.9%	-13.1%
Cc1ccc(C)c(S(=O)(=O)N2CCN(CC(=O)NC(=O)NCc3ccco3)CC2)c1	-26.7%	-25.4%
COC(=O)C(Cc1ccccc1)NC(=O)COc1ccc(C(C)(C)C)cc1 (stereo not drawn)	-5.3%	-5.2%
CCc1cccc(NC(=O)Cc2ccc(OC)c(OC)c2)c1	-26.4%	-15.7%
O=C(COc1cccc(Oc2ccccc2)c1)Nc1ncccn1	nt	-11.4%
Cc1ccc(S(=O)(=O)CCC(=O)OCC(=O)N2CCN(c3ccccc3)CC2)cc1	-14.7%	-5.2%
Cc1cccc(NC(=O)c2ccc(NC(C)c3ccccc3)c([N+](=O)[O-])c2)n1 (stereo not drawn)	-0.8%	-22.1%
O=c1c2ccccc2nc(CSc2ncnc3nc[nH]c23)n1-c1cccc(C(F)(F)F)c1	nt	-14.0%
COc1cccc(CNC(=O)CCc2nc3cc(S(=O)(=O)N4CCOCC4)ccc3n2C)c1	?	-2.9%
O=C(O)C1C(C(=O)O)C1(c1ccccc1)c1ccccc1 (stereo not drawn)	17.7%	-11.5%
